# 2A firefly = Primary qHTS Assay for Foot and Mouth Disease Virus Antivirals against NCGC Sytravon and CBC Compound Libraries: Firefly Luciferase Signal | HEK cells with a luciferase reporter of 2A StopGo recoding | Potency, µM (highest dose often 57.5 µM), inactives show at the highest dose signal change, negative = less light | 0.23% of 120,000 active | AID 1745856, 2022; active = well fitted falling curve with a large enough effect; inconclusive = small, poorly fitted or top-dose-only effect; inactive = no such curve, though single readings can be large or run the other way; further: nearly all actives have a fitted effect of over 60% in size; overnight with compound
# StopGo RLuc = Primary qHTS Assay for Foot and Mouth Disease Virus Antivirals against NCGC Sytravon and CBC Compound Libraries: Renilla Luciferase Signal. HEK cells with a luciferase reporter of 2A StopGo recoding. Potency, µM (series often up to 57.5 µM), inactives show at the highest dose signal change, negative = less light. 0.32% of 120,000 active; active means well fitted falling curve with a large enough effect; inconclusive means small, poorly fitted or top-dose-only effect; inactive means no such curve, though single readings can be large or run the other way; further: nearly all actives have a fitted effect of over 55% in size; overnight with compound
# The depositor's hits bear a star; ? = inconclusive; ! = a repeat was not active; [ ] = remark or other dose. On the % scale 0 is the no-effect control and ±100 the full control effect; potency means the concentration at half of the fitted maximal effect.
SMILES,2A firefly,StopGo RLuc
CCCCC(CC)COC(=O)/C=C/c1ccc(OC)cc1 (stereo not drawn),37%[activator][11.5 µM],-3%
COc1cc(Cl)c(C)cc1NC(=O)c1cn(CC(C)C)c(=O)c2cc(OC)c(OC)cc12,-4%,4%
O=C(CSc1nc2c([nH]c3ccccc32)c(=O)n1-c1ccc(F)cc1)N1CCc2ccccc21,12%,-9%
CC1CCCN(C(=O)CCS(=O)(=O)c2cc3c(cc2Cl)NC(=O)CO3)C1 (stereo not drawn),16%,11%
O=C(Nc1ccc2c(c1)OCO2)C1CCN(C(=O)c2cc3ccccc3o2)CC1,41%[activator],-11%
CC(=O)Nc1nonc1-c1nnc(SCC(=O)Nc2c(C)cccc2C)n1-c1ccccc1,-14%,-12%
COc1ccc(S(=O)(=O)CC(=O)c2ccc(F)cc2)cc1,2%,167%[activator]
CN(Cc1cccc(F)c1)C(=O)Cn1nnn(-c2cccs2)c1=O,47%[activator],4%
CN(C)S(=O)(=O)c1ccc(NC(=O)COc2ccc3cc(Br)ccc3c2)cc1,-10%,-4%
COc1cc(CN(C(=S)NCC(=O)NCc2ccc(Cl)cc2)C2CCCC2)cc(OC)c1OC,-12%,208%[activator]
Cc1cc(=O)n(Cc2ccc(F)cc2Cl)c2c1c(C)nn2C,-18%,-10%
COc1ccc(/C=C2\Oc3cc(OS(C)(=O)=O)ccc3C2=O)c(OC)c1,5%,8%
COc1cc(C2C(C(=O)Nc3ccccn3)=C(C)Nc3ncnn32)ccc1OCc1ccccc1 (stereo not drawn),10%,0%
COCCCNC(=O)C1CCN(C(=O)C2C(C=C(C)C)C2(C)C)CC1 (stereo not drawn),?,2%
COCCN1C(=O)c2[nH]nc(-c3cc(Cl)c(C)cc3O)c2C1c1ccc(O)c(OC)c1 (stereo not drawn),-8%,13%
Cc1ccc(-c2nc3cc(NC(=O)c4cccs4)ccc3o2)cc1C,172%[activator],11%
CCOC(=O)C(NC(=O)c1cccc(C)c1)C(F)(F)F (stereo not drawn),1%,-3%
CCC(C)(C)C1CCc2c(sc(NC(=O)C3c4ccccc4Oc4ccccc43)c2C(N)=O)C1 (stereo not drawn),-15%,-18%
COc1ccc(N=C/C(C(=O)C(F)(F)F)=C(\O)c2cccs2)cc1,163%[activator],21%
Cn1cccc1Cc1nnc(SCC(=O)Nc2ccc(F)cc2F)n1-c1ccc(F)cc1,-7%,20%
COC(=O)C1CN(Cc2ccc(F)cc2)CCS(=O)(=O)N1Cc1ccccc1 (stereo not drawn),8%,0%
COc1ccccc1Cc1nc2ccccc2nc1SCC(=O)Nc1cccc(Cl)c1C,61%[activator],-12%
COc1ccc(N2CCN(CCCNC(=O)c3nnc(Cc4ccc(F)cc4)o3)CC2)cc1,0%,-13%
O=C(NNC(=O)C1CCCC1)c1ccccc1OCc1ccc(F)cc1,14%,247%[activator]
COc1cc(CCC(=O)OCc2ccc(Cl)cc2)cc(OC)c1OC,1%,-18%

# Another view of 2 compounds above:
Cn1cccc1Cc1nnc(SCC(=O)Nc2ccc(F)cc2F)n1-c1ccc(F)cc1
  2A firefly: -7%
  StopGo RLuc: 20%

COC(=O)C1CN(Cc2ccc(F)cc2)CCS(=O)(=O)N1Cc1ccccc1 (stereo not drawn)
  2A firefly: 8%
  StopGo RLuc: 0%

# Going on with the list:
SMILES,2A firefly,StopGo RLuc
O=C1CC(c2ccccc2O)Cc2c1cnn2-c1nc2ccccc2[nH]1 (stereo not drawn),-5%,6%
Cc1ccc(NC(=O)CCn2cnc3c2c(=O)n(C)c(=O)n3C)cc1,1%,5%
CN1C(=O)Cc2cc(-c3csc(-c4cccc(F)c4)n3)ccc21,0%,9%
CN(CC(=O)NC(=O)Nc1ccccc1F)Cc1cccc(C#N)c1,0%,-8%
CCC(C)NC(=O)CCc1c(C)nc2cc(-c3ccc(OC)cc3OC)nn2c1C (stereo not drawn),-8%,-4%
CCC(=O)N1CCc2cc(Br)cc(S(=O)(=O)CCC(=O)NCc3ccc(C)cc3)c21,-20%,0%
CCc1ccc2nc(Nc3nc(-c4cccc(OC)c4)cc(=O)[nH]3)nc(C)c2c1,-9%,-11%
Cc1ccc(-c2cn3c(n2)sc2cc(C(=O)NC4CCCCCC4)ccc23)cc1,50%[activator],-7%
COc1cccc(C(=O)NCc2cn3ccccc3n2)c1,-14%,-13%
CCOCc1ccc(CNC(=O)/C=C/c2ccc(C)o2)cc1,71%[activator],21%
Cc1ccc(Nc2nc(N)nc(CN3CCN(Cc4ccc5c(c4)OCO5)CC3)n2)c(C)c1,6%,-9%
Cc1[nH]c2c(C(=O)NC3CCS(=O)(=O)C3)cccc2c1C (stereo not drawn),2%,-6%
CCN(CC)S(=O)(=O)c1nnc(NC(=O)c2ccccc2Cl)s1,0%,49%[activator]
CCOc1ccc(CNC(=O)C2CCCN(c3nc4c(C)cc(C)cc4s3)C2)cc1 (stereo not drawn),36%,0%
Cc1ccc(Nc2c(-c3ccc(N4CCOCC4)cc3)nc3ccc(C)cn23)cc1,47%[activator],3%
CCOc1ccc(NC(=O)c2nn(C)c(=O)c3ccccc23)cc1OCC,25%,18%
CC(Cc1cccs1)N(Cc1ccccc1)C(=O)c1ccc(C#N)cc1 (stereo not drawn),-5%,10%
O=C(c1cc(-c2ccc(O)cc2)on1)N1CCN(c2ccccc2)CC1,?,?
CCCCc1nn2c(=O)cc(COC(=O)CSc3ccc(C)cc3)nc2s1,17%,8%
CCc1cccc(NC(=O)CC2Oc3ccc(C)cc3NC2=O)c1 (stereo not drawn),0%,-20%
Cn1cccc1/C=C(\C#N)c1cccc(Br)c1,24%,38%[activator]
CCc1c(C)c2ccc(O)c(CN3CCN(c4ccccc4)CC3)c2oc1=O,48%[activator],29%
O=C(CSCn1nnc2c(=O)[nH]c(Cc3ccc(F)cc3)nc21)Nc1ccc(F)c(Cl)c1,-3%,40%[activator]
Cc1ccc(Nc2nc(-c3ccccc3)cs2)cc1,0%,8%
CCCNc1ccc(-c2nc(-c3ccccn3)no2)cc1[N+](=O)[O-],100%[activator],12%

# Reformatted with bars between the fields: entries from further up
structure | 2A firefly | StopGo RLuc
Cc1ccc(Nc2c(-c3ccc(N4CCOCC4)cc3)nc3ccc(C)cn23)cc1 | 47%[activator] | 3%
CCOc1ccc(NC(=O)c2nn(C)c(=O)c3ccccc23)cc1OCC | 25% | 18%

# Next section.
SMILES,2A firefly,StopGo RLuc
O=C(Nc1cccc(Cl)c1)C1CCCN(c2ncnc3nc[nH]c23)C1 (stereo not drawn),0%,-2%
Cc1ccc(S(=O)(=O)N2CCCc3cc(NS(=O)(=O)c4ccc(F)c(C)c4)ccc32)cc1,-13%,187%[activator]
Cc1ccc(C)c(NC(=O)c2cc(S(=O)(=O)N3CCCCCC3)ccc2F)c1,0%,4%
Cc1ccc(-n2c(SCc3ccccc3C)nc3[nH]ncc3c2=O)cc1C,-20%,-3%
Cc1ccc(C(=O)/C=C/c2ccc(-c3ccccc3Cl)o2)cc1,37%[activator],10%
Cc1ccc(C)c(NC(=O)CSc2c3c(nc4ccc(Cl)cc24)CCCC3)c1,-1%,-6%
CC1CC(=O)Nc2cc(S(=O)(=O)NCCc3ccco3)ccc2S1 (stereo not drawn),18%,106%[activator]
O=C(NCc1ccccc1Cl)C(=O)c1cn(CC(=O)N2CCOCC2)c2ccccc12,12%,68%[activator]
Cc1ccc(-n2nnnc2SCc2nc3ccccc3o2)cc1C,21%,-13%
CN(CC(=O)NC1CC1)C(=O)Cc1cccc(C(F)(F)F)c1,6%,-2%
COc1ccc(C)cc1-n1c(SCC(=O)Nc2cccc(C(=O)O)c2)nc2ccccc2c1=O,8%,2%
CC(C)COc1ccc(/C=C(/C#N)c2ccc(Cl)cc2)cc1,25%,6%
CCCNC(=O)Nc1cccc(C(=O)NC(C)C)c1,11%,12%
Cc1ccc(C)c(-n2c(CCC(=O)O)ccc2-c2ccc(Cl)cc2)c1,-15%,6%
CCN(C(=O)Cn1nc(Cc2ccncc2)c2ccccc2c1=O)c1cc(Cl)ccc1OC,-16%,14%
Clc1ccc(-c2csc(-c3nc(-c4ccc(Br)s4)cs3)n2)cc1,-10%,4%
COc1ccc(C)cc1NS(=O)(=O)c1cc2c3c(c1)CC(=O)N3CCC2,-31%,18%
Cn1cc(C(C(=O)O)N2CCN(c3ncc(Br)cn3)CC2)c2ccc(C(=O)O)cc21 (stereo not drawn),-1%,0%
CCS(=O)(=O)CCSCCS(=O)(=O)CC,19%,0%
CCc1ccc(NC(=O)CSc2ccc(-c3ccccn3)nn2)cc1,0%,-14%
Cc1cc(C)cc(Oc2coc3cc(OC(=O)c4ccco4)ccc3c2=O)c1,-8%,4%
Cc1cc(SCC(=O)NCC(=O)N(C)C)nc2c(C)cccc12,7%,1%
Cc1cccc(CC(=O)Nc2ccc3nc(N4CCC(C)CC4)cc(C)c3c2)c1,91%[activator],13%
CC/C=C(/C)C(=O)NCCc1cccs1,158%[activator],11%
CC(C)c1ccc(OCC(=O)Nc2ccc(C(=O)N(C)C)cc2)cc1,29%,-9%

# More results
SMILES,2A firefly,StopGo RLuc
COc1ccc(C(=O)c2sc(Nc3ccc(Cl)cc3)c(C(N)=O)c2N)cc1,158%,-1%
CCOc1cc(C)c(S(=O)(=O)Nc2ccccc2OCC)cc1C,9%,120%[activator]
COc1ccc(Nc2nc(C(=O)OCC(=O)c3ccccc3)cs2)cc1,48%[activator],17%
COc1cccc(C(=O)Oc2ccc(C3(c4ccc(OC(=O)c5cccc(OC)c5)cc4)OC(=O)c4ccccc43)cc2)c1,-6%,15%
COc1ccc(C2C3=C(CCCC3=O)OC3=C2C(=O)CCC3)cc1OC,17%,7%
N#Cc1ccc(NC(=O)N2CCN(Cc3nc(-c4ccc(Cl)cc4)no3)CC2)cc1,?,?
COCCCNC(=O)C1CCCN(S(=O)(=O)c2ccc3c(c2)oc(=O)n3C)C1 (stereo not drawn),-5%,-3%
Cn1c(=O)c2c(nc(NC3CCCC3)n2Cc2cccc(Br)c2)n(C)c1=O,-4%,-5%
COc1cc(NC(=O)c2nc3nc(C)cc(C(F)F)n3n2)c(OC)cc1Cl,-5%,-2%
CS(=O)(=O)NC1CCCN(C(=O)c2cc(F)ccc2F)C1 (stereo not drawn),11%,-3%
O=C(NCC(c1ccccc1)c1ccccc1)c1nn(-c2ccccc2Cl)nc1CO,?,28µM*!
CN(C)/C=C/C(=O)c1ccc[nH]1,0%,5%
CN(C)C(=O)c1ccc(NC(=O)Cn2nnnc2-c2ccccc2F)cc1,-10%,45%[activator]
CSc1cccc(NC(=O)CN(C)S(=O)(=O)c2ccc3c(c2)n(C)c(=O)c(=O)n3C)c1,-7%,-10%
COc1ccc(Cl)cc1NC(=O)NCC1CCN(Cc2ccccc2F)CC1,?,?
CC(=O)CC(c1ccc([N+](=O)[O-])cc1)c1c(O)c2ccccc2oc1=O (stereo not drawn),-4%,35%[activator]
O=C(NCc1ccc(OCC(F)(F)F)cc1)c1cnc2ccccc2n1,-23%,?
CCc1ccc(CNC(=O)Nc2ccc(N3CCOCC3)nc2)s1,14%,-12%
COc1ccc(NC(=O)c2sc3nc(-c4cc5cccc(OC)c5oc4=O)[nH]c(=O)c3c2C)cc1,-13%,-14%
COc1ccc(N/C=C/C(=O)c2ccc(C(C)C)cc2)cc1Cl,0%,12%
Cc1ccc(C)c(N2CCN(C(=O)Cn3c(C)c4cnn(-c5ccccc5)c(=O)c4c3C)CC2)c1,25µM*,22µM*
CC(C)c1ccc(NC(=O)CSC2=Nc3ccccc3C3=NC(CC(=O)NCc4ccc(F)cc4)C(=O)N23)cc1 (stereo not drawn),?,35%[activator]
Cc1cccc(N2C(=O)N(Cc3cc(=O)n4ccccc4n3)c3ccccc3S2(=O)=O)c1,10%,132%[activator]
Cc1ccc(C(=O)c2ccc(Oc3ccc(C)c(C)c3)cc2)cc1,48%[activator],20%
Nc1ncn([C@H]2C[C@H](O)[C@@H](CO)O2)c(=O)n1,2%,17%
COc1ccc(-c2noc(-c3cccnc3NCc3ccco3)n2)cc1,231%[activator],12%
Cc1ccc(-c2nnc(SCC(=O)NCc3ccccc3)nc2-c2ccc(C)cc2)cc1,13%,49%[activator]

# Of the compounds above, six have bromine:
SMILES,2A firefly,StopGo RLuc
CN(C)S(=O)(=O)c1ccc(NC(=O)COc2ccc3cc(Br)ccc3c2)cc1,-10%,-4%
CCC(=O)N1CCc2cc(Br)cc(S(=O)(=O)CCC(=O)NCc3ccc(C)cc3)c21,-20%,0%
Cn1cccc1/C=C(\C#N)c1cccc(Br)c1,24%,38%[activator]
Clc1ccc(-c2csc(-c3nc(-c4ccc(Br)s4)cs3)n2)cc1,-10%,4%
Cn1cc(C(C(=O)O)N2CCN(c3ncc(Br)cn3)CC2)c2ccc(C(=O)O)cc21 (stereo not drawn),-1%,0%
Cn1c(=O)c2c(nc(NC3CCCC3)n2Cc2cccc(Br)c2)n(C)c1=O,-4%,-5%

# This is a random part of the collection. Share with any hit: about 0.55%.
